HIV Env fusion: HIV envelope-mediated fusion inhibition | inhibition, % at 12.3 µM | AID 651610 | HeLa-JRFL Env/CEM21 cell fusion, luciferase | hit rate 1.1% among 360,000;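 active = mean replicate inhibition score of at least 50 and every replicate individually at or above 50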;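 also: 0% = plate neutral controls and 100% = maraviroc near 300 nM; one replicate is shown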
* = called active by the depositor; & = joins results of further samples; [ ] = dose if it differs, or a comment.

| No. | Compound | HIV Env fusion |
| --- | --- | --- |
| 1 | NC(=O)c1c(N)[nH]c(C(=O)c2ccccc2)c1-c1ccccc1 | -28 |
| 2 | CN1CCN(C(=O)C[C@H]2C=C[C@@H](NC(=O)Nc3ccccc3F)[C@H](CO)O2)CC1 | -10[16.7 µM] |
| 3 | COc1cccc(NC(=O)N[C@H]2CC[C@@H](CC(=O)N3CCCCC3)O[C@H]2CO)c1 | -16[16.7 µM] |
| 4 | C[C@H](CO)N1C[C@H](C)[C@@H](CN(C)C(=O)Nc2ccc(C(F)(F)F)cc2)OCCCC[C@H](C)Oc2ccc(N(C)C)cc2C1=O | 18[16.7 µM] |
| 5 | CO[C@H]1CC[C@@H]2CCN(C)C(=O)C[C@@H](c3ccccc3)CN(C)C(=O)c3cccc(C#N)c3OC[C@H]1O2 | 30[16.7 µM] |
| 6 | CO[C@H]1CN(C)C(=O)c2cc(NS(C)(=O)=O)ccc2OC[C@H](C)NC[C@@H]1C | 15[16.7 µM] |
| 7 | CN(C)C(=O)C[C@H]1C[C@H]2c3cc(NC(=O)CC4CC4)ccc3O[C@H]2[C@@H](CO)O1 | -9[16.7 µM] |
| 8 | O=C(NC1CCCCC1)N1CC2(C1)[C@H](c1ccccc1)[C@@H](CO)N2CC1CC1 | 5[16.7 µM] |
| 9 | O=C(NCC(F)(F)F)[C@@H]1[C@@H](CO)[C@@H]2Cn3c(cccc3=O)[C@@H]2N1Cc1cccc(F)c1 | 2[16.7 µM] |
| 10 | c1ccc(Nc2ccc(NCCc3c[nH]c4ccccc34)cc2)cc1 | -2 |

(more compounds)
| No. | Compound | HIV Env fusion |
| --- | --- | --- |
| 11 | CC(C)NC(=O)Nc1ccc2c(c1)C(=O)N([C@H](C)CO)C[C@H](C)[C@@H](CN(C)C(=O)Cc1ccccc1)OCCCC[C@@H](C)O2 | -3[16.7 µM] |
| 12 | Cc1cc(C(=O)Nc2ccc3c(c2)C(=O)N(C)[C@H]2CC[C@H](CC(=O)NCc4ccc(-c5ccccc5)cc4)O[C@@H]2CO3)no1 | 7[16.7 µM] |
| 13 | CC(C)NC(=O)Nc1ccc2c(c1)C(=O)N([C@H](C)CO)C[C@@H](C)[C@H](CN(C)C(=O)CCCN(C)C)OCCCC[C@@H](C)O2 | -7[16.7 µM] |
| 14 | CCCCCCC12C(=Cc3cc4c(cc31)OCCO4)c1cc(OC)c(OC)cc1C(CC(=O)NC1CCCCC1)N2C(=O)OC (stereo not drawn) | -6 |
| 15 | COc1cccc(S(=O)(=O)N(C)C[C@@H]2OCc3ccccc3-c3ccccc3C(=O)N([C@H](C)CO)C[C@H]2C)c1 | 3[16.7 µM] |
| 16 | COCC(=O)Nc1ccc2c(c1)C(=O)N(C)C[C@H](OC)[C@H](C)CN(C(=O)c1ccccc1)[C@H](C)CO2 | -12[16.7 µM] |
| 17 | C[C@H]1CN([C@@H](C)CO)C(=O)c2cc(NS(=O)(=O)c3ccccc3)ccc2O[C@H]1CN(C)C | 3[16.7 µM] |
| 18 | C[C@@H]1CN([C@H](C)CO)C(=O)c2cc(NS(=O)(=O)c3ccccc3)ccc2O[C@@H]1CN(C)C(=O)Nc1ccc(C(F)(F)F)cc1 | -9[16.7 µM] |
| 19 | COC(=O)c1ccc2nc(-c3cccc(Cl)c3)c(Cc3ccccc3C(F)(F)F)n2c1 | 3 |
| 20 | Nc1ccccc1-c1cn(CC(=O)Nc2ccon2)nn1 | -3[16.7 µM] |

(listing goes on)
| No. | Compound | HIV Env fusion |
| --- | --- | --- |
| 21 | NC(Cc1ccc(O)cc1)C(=O)NN=Cc1ccccc1Cl (stereo not drawn) | -7 |
| 22 | CCOC(=O)C1=CC[C@@H](c2ccccc2)C(C#N)(C#N)[C@H]1/C=C/c1ccccc1 | -15 |
| 23 | O=C(CCN1CCCCC1)N[C@@H]1CC[C@@H](CC(=O)N2CCC(Cc3ccccc3)CC2)O[C@H]1CO | 3[16.7 µM] |
| 24 | COc1ccc(NC(=O)N(C)C[C@H]2Oc3c(NS(=O)(=O)c4ccccc4)cccc3C(=O)N([C@@H](C)CO)C[C@H]2C)cc1 | -7[16.7 µM] |
| 25 | C[C@@H]1CN([C@H](C)CO)C(=O)c2ccccc2-c2ccccc2CO[C@@H]1CN(C)S(=O)(=O)c1cccc(C#N)c1 | -37[16.7 µM] |
| 26 | O=C(NCc1cccc(F)c1)[C@H]1[C@H](CO)[C@H]2Cn3c(ccc(-c4cccnc4)c3=O)[C@@H]1N2CC1CC1 | -2[16.7 µM] |
| 27 | C[C@@H]1CN([C@@H](C)CO)C(=O)Cc2cc(NC(=O)Nc3ccc(F)cc3)ccc2O[C@@H]1CN(C)Cc1ccc(C(F)(F)F)cc1 | 41[16.7 µM] |
| 28 | C[C@@H](NC(=O)C[C@@H]1C[C@H]2c3cc(NC(=O)c4ccc5c(c4)OCO5)ccc3O[C@H]2[C@H](CO)O1)c1ccccc1 | 15[16.7 µM] |
| 29 | CC(C)NC(=O)Nc1ccc2c(c1)CC(=O)N([C@H](C)CO)C[C@H](C)[C@@H](CN(C)S(=O)(=O)c1ccccc1)O2 | -1[16.7 µM] |
| 30 | CCCNC(=O)N1CC2(CN(C(=O)CC)C2)c2c(n(C)c3cc(OC)ccc23)[C@@H]1CO | -5[16.7 µM] |

Going on with the list.
| No. | Compound | HIV Env fusion |
| --- | --- | --- |
| 31 | Cc1ccc(CN(C)C[C@H]2OCc3cnnn3CCCC(=O)N([C@H](C)CO)C[C@H]2C)cc1 | 5[16.7 µM] |
| 32 | C=CCNC(=S)N(C)[C@H]1C[C@H]2c3[nH]c4c(-c5ccccc5)cccc4c3CCN2C(=O)[C@H]1[C@H](C)O | -30 |
| 33 | O=C(C[C@H]1C[C@H]2c3cc(NC(=O)CC4CC4)ccc3O[C@H]2[C@H](CO)O1)NCc1ccc(Cl)cc1 | 2[16.7 µM] |
| 34 | C[C@@H]1CN(C(=O)OC(C)(C)C)CCN1c1ccc(N2CC[C@@H](O)C2)c(C#N)c1 | -5 |
| 35 | COC(=O)[C@]12C[C@H](CC(=O)NCc3cccc(C(F)(F)F)c3)C(=O)N(CCC3=CCCCC3)C1=C[C@H](C(C)(C)C)O[C@@H]2C | 101* |
| 36 | O=C(C[C@H]1CC[C@H]2[C@@H](COC[C@@H](O)CN2Cc2cccc(Cl)c2)O1)N1CCCCC1 | 17[16.7 µM] |
| 37 | CO[C@@H]1CN(C)C(=O)c2cc(NC(=O)c3ccc4c(c3)OCO4)ccc2OC[C@H](C)N(CC2CC2)C[C@H]1C | -7[16.7 µM] |
| 38 | COc1cccc(C(=O)Nc2ccc3c(c2)C(=O)N(C)[C@H]2CC[C@H](CC(=O)NCCCN4CCOCC4)O[C@H]2CO3)c1 | 9[16.7 µM] |
| 39 | C[C@@H]1CN([C@@H](C)CO)C(=O)c2c(c3ccccc3n2C)-c2ccccc2CO[C@H]1CN(C)C(=O)CCC(F)(F)F | 33[16.7 µM] |
| 40 | CO[C@H](C(=O)N(C)C[C@H]1OCc2ccccc2-c2ccccc2C(=O)N([C@@H](C)CO)C[C@@H]1C)c1ccccc1 | -12[16.7 µM] |

Arranged by molar mass (smallest number first): some entries from above.
| No. | Compound | HIV Env fusion |
| --- | --- | --- |
| 21 | NC(Cc1ccc(O)cc1)C(=O)NN=Cc1ccccc1Cl (stereo not drawn) | -7 |
| 36 | O=C(C[C@H]1CC[C@H]2[C@@H](COC[C@@H](O)CN2Cc2cccc(Cl)c2)O1)N1CCCCC1 | 17[16.7 µM] |
| 19 | COC(=O)c1ccc2nc(-c3cccc(Cl)c3)c(Cc3ccccc3C(F)(F)F)n2c1 | 3 |
| 17 | C[C@H]1CN([C@@H](C)CO)C(=O)c2cc(NS(=O)(=O)c3ccccc3)ccc2O[C@H]1CN(C)C | 3[16.7 µM] |
| 32 | C=CCNC(=S)N(C)[C@H]1C[C@H]2c3[nH]c4c(-c5ccccc5)cccc4c3CCN2C(=O)[C@H]1[C@H](C)O | -30 |
| 40 | CO[C@H](C(=O)N(C)C[C@H]1OCc2ccccc2-c2ccccc2C(=O)N([C@@H](C)CO)C[C@@H]1C)c1ccccc1 | -12[16.7 µM] |
| 29 | CC(C)NC(=O)Nc1ccc2c(c1)CC(=O)N([C@H](C)CO)C[C@H](C)[C@@H](CN(C)S(=O)(=O)c1ccccc1)O2 | -1[16.7 µM] |
| 15 | COc1cccc(S(=O)(=O)N(C)C[C@@H]2OCc3ccccc3-c3ccccc3C(=O)N([C@H](C)CO)C[C@H]2C)c1 | 3[16.7 µM] |
| 39 | C[C@@H]1CN([C@@H](C)CO)C(=O)c2c(c3ccccc3n2C)-c2ccccc2CO[C@H]1CN(C)C(=O)CCC(F)(F)F | 33[16.7 µM] |
| 38 | COc1cccc(C(=O)Nc2ccc3c(c2)C(=O)N(C)[C@H]2CC[C@H](CC(=O)NCCCN4CCOCC4)O[C@H]2CO3)c1 | 9[16.7 µM] |
| 35 | COC(=O)[C@]12C[C@H](CC(=O)NCc3cccc(C(F)(F)F)c3)C(=O)N(CCC3=CCCCC3)C1=C[C@H](C(C)(C)C)O[C@@H]2C | 101* |
| 13 | CC(C)NC(=O)Nc1ccc2c(c1)C(=O)N([C@H](C)CO)C[C@@H](C)[C@H](CN(C)C(=O)CCCN(C)C)OCCCC[C@@H](C)O2 | -7[16.7 µM] |
| 14 | CCCCCCC12C(=Cc3cc4c(cc31)OCCO4)c1cc(OC)c(OC)cc1C(CC(=O)NC1CCCCC1)N2C(=O)OC (stereo not drawn) | -6 |
| 18 | C[C@@H]1CN([C@H](C)CO)C(=O)c2cc(NS(=O)(=O)c3ccccc3)ccc2O[C@@H]1CN(C)C(=O)Nc1ccc(C(F)(F)F)cc1 | -9[16.7 µM] |

(next part)
| No. | Compound | HIV Env fusion |
| --- | --- | --- |
| 41 | C[C@H]1CN([C@@H](C)CO)C(=O)CCCn2cc(nn2)CO[C@H]1CN(C)Cc1ccc(C(F)(F)F)cc1 | 6[16.7 µM] |
| 42 | CO[C@H]1CN(C)C(=O)c2ccc(NC(=O)c3cccc(F)c3)cc2OC[C@H](C)N(CC2CC2)C[C@@H]1C | -2[16.7 µM] |
| 43 | CN1C(=O)c2cc(NC(=O)c3cccc(F)c3)ccc2OC[C@@H]2O[C@H](CC(=O)NCC3CCCCC3)CC[C@@H]21 | 44&25[16.7 µM] |
| 44 | COCC(=O)Nc1ccc2c(c1)[C@H]1C[C@H](CC(=O)N[C@H](C)c3ccccc3)O[C@@H](CO)[C@H]1O2 | -4[16.7 µM] |
| 45 | COCC(=O)N1C[C@@H](C)[C@H](OC)CN(C)C(=O)c2cc(NC(=O)Nc3cccc(F)c3)ccc2OC[C@H]1C | -7[16.7 µM] |
| 46 | COc1ccc(C(=O)Nc2ccc3c(c2)C(=O)N(C)[C@@H]2CC[C@H](CC(=O)NCC4CC4)O[C@H]2CO3)cc1 | -6[16.7 µM] |
| 47 | CN1C(=O)c2cc(NC(=O)Nc3ccc(Cl)cc3)ccc2OC[C@H]2O[C@@H](CC(=O)NCCN3CCCCC3)CC[C@@H]21 | -19[16.7 µM] |
| 48 | C[C@H]1CN([C@@H](C)CO)S(=O)(=O)c2ccc(C#CC(C)(C)O)cc2O[C@H]1CN(C)C(=O)C1CC1 | -11[16.7 µM] |
| 49 | O=C(Nc1ccc(C(F)(F)F)cc1)N[C@@H]1CC[C@@H](CCn2cc(C3(O)CCCC3)nn2)O[C@H]1CO | 0[16.7 µM] |
| 50 | C[C@@H]1CN([C@H](C)CO)C(=O)c2ccccc2-c2ccccc2CO[C@@H]1CN(C)Cc1cccc(O)c1 | -5[16.7 µM] |

Continuation.
| No. | Compound | HIV Env fusion |
| --- | --- | --- |
| 51 | COCC(=O)N[C@H]1C=C[C@@H](CC(=O)NCc2ccc(Cl)cc2)O[C@H]1CO | -30[16.7 µM] |
| 52 | O=C(C[C@@H]1C[C@H]2c3cc(NC(=O)c4ccc5c(c4)OCO5)ccc3O[C@H]2[C@H](CO)O1)NCc1cccnc1 | -6[16.7 µM] |
| 53 | CC(NC(=O)c1c(N)[nH]c(C(=O)c2ccc(Cl)cc2)c1-c1ccc(Br)cc1)c1cccc2ccccc12 (stereo not drawn) | -5 |
| 54 | C[C@@H]1CN([C@@H](C)CO)S(=O)(=O)c2ccc(C#CC3CC3)cc2O[C@H]1CN(C)Cc1cncnc1 | 7[16.7 µM] |
| 55 | COc1ccc(S(=O)(=O)N(C)C[C@@H]2Oc3c(cccc3N(C)C)C(=O)N([C@H](C)CO)C[C@@H]2C)cc1 | -7[16.7 µM] |
| 56 | CCOC(=O)C1=CC[C@@H](c2ccc3ccccc3n2)[C@@H]1C(=O)c1ccccc1 | 0[16.7 µM] |
| 57 | CO[C@@H]1CN(C)C(=O)c2ccc(NC(=O)c3cccc(F)c3)cc2OC[C@H](C)N(CC2CC2)C[C@@H]1C | 0[16.7 µM] |
| 58 | O=C(C[C@@H]1CC[C@@H]2[C@H](COC[C@@H](O)CN2Cc2ccc(Oc3ccccc3)cc2)O1)N1CCN(c2ccccc2)CC1 | 30[16.7 µM] |
| 59 | CC=Cc1ccc2n(c1=O)C[C@H]1[C@H](CO)[C@@H](C(=O)NCCC)N(Cc3cocn3)[C@@H]21 (mixture of isomers) | -2[16.7 µM] |
| 60 | C=CCNc1ccc2c(c1)OC[C@H](Cc1ccccc1)NS2(=O)=O | -56 |

Later entries.
| No. | Compound | HIV Env fusion |
| --- | --- | --- |
| 61 | COc1ccc(C#Cc2cnc3c(c2)C(=O)N([C@@H](C)CO)C[C@@H](C)[C@@H](CN(C)CC2CC2)O3)cc1 | 28[16.7 µM] |
| 62 | O=C(C[C@@H]1C[C@@H]2c3cc(NS(=O)(=O)c4ccccc4)ccc3O[C@@H]2[C@@H](CO)O1)N1CCOCC1 | 8[16.7 µM] |
| 63 | COc1ccc(-c2ccccc2C2Cc3nnccc3CN2C(=O)Nc2ccccc2)cc1 (stereo not drawn) | -30 |
| 64 | CN1C(=O)c2cc(NC(=O)Cc3cccs3)ccc2OC[C@H]2O[C@H](CC(=O)NCc3ccc(-c4ccccc4)cc3)CC[C@@H]21 | 7[16.7 µM] |
| 65 | C[C@H]1CN([C@@H](C)CO)C(=O)c2cc(NC(=O)c3ccncc3)ccc2O[C@@H]1CN(C)Cc1ccc(Cl)c(Cl)c1 | 0[16.7 µM] |
| 66 | O=C(N[C@H]1C=C[C@H](CC(=O)N2CCN(c3ccccc3)CC2)O[C@@H]1CO)c1ccncc1 | -9[16.7 µM] |
| 67 | Cc1noc(C)c1S(=O)(=O)Nc1ccc2c(c1)CC(=O)N([C@H](C)CO)C[C@@H](C)[C@@H](CN(C)C(=O)Nc1ccccc1)O2 | -11[16.7 µM] |

A portion of the library (hit frequency here may not be typical).
